# Assay outcomes as filed in PubChem BioAssay.
# Tg IFNy HTS: inhibitors of Toxoplasma gondii growth with IFN-gamma. Toxoplasma gondii growth in IFN-gamma-treated host cells; active compounds read low; reference of the scale not given here. activity change, negative = inhibition, %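 (about 20 µM by stock and volumes)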. 69,000 tested, 3.8% active. AID 1259416;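 active means below -70%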;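 further: host cells are HeLa cells infected with Toxoplasma gondii; parasite growth read as luciferase light; one replicate is shown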
# * hit, by the source's call; & = joins results of further samples.
Molecule	Tg IFNy HTS
Cc1ccc(OCC(O)CNc2ccc(Br)c(C(F)(F)F)c2)cc1C (stereo not given)	39
C=CCn1c(=O)c(-c2nc(-c3ccc(SC)cc3)no2)c(O)c2ccccc21	26
CCc1c(C)nn(CC(=O)NC(C)c2n[nH]c(C)n2)c1C (stereo not given)	-4
Cc1cc(C(C(=O)O)N(C)CCOc2ccccc2)ccc1F (stereo not given)	7
CCc1ccccc1NC(=O)CSc1nnc(-c2nonc2N)n1CC	7
Cc1cnc(N2CCc3cc(C(=O)N(C)C)c(NCC4CC4)nc3CC2)nc1	2
CC(C)c1cc(C(=O)N2CCn3c(C(N)=O)cnc3C2)cs1	-4
Cc1oc(-c2ccc(C(=O)N(C)Cc3ccccc3)cc2)nc1CN1CCN(c2ccccc2)CC1	-94*
COc1ccc2[nH]c(CN(Cc3cccnc3)Cc3ccccc3F)c(C)c2c1	95
O=C1/C(=C/c2ccccc2)C(NC2CCCCC2)c2ccccc21 (stereo not given)	-54
O=c1cc(O)c2c(=O)n3c4c(cccc4c2o1)CCC3	-15
O=C(c1cccnc1)N1CCCC2(CCN(Cc3ccccn3)C2)C1 (stereo not given)	7
Cc1cc(Cc2cccs2)c(=O)[nH]n1	41
CC(=O)Nc1nc(C2CCN(c3cc(C)ncn3)CC2)cs1	5
CCc1nc(C)c(C(=O)N(CC)CCc2nc3ccc(C)cc3[nH]2)o1	1
Cc1nc(CN2CCN3CC(C(=O)O)CN(C(C)C)CC3C2)cs1 (stereo not given)	-3
CCCNC(=O)c1cc(-c2cnc(-c3ccnn3C)nc2)cn1C	-43
CCOC(=O)C1C(=O)OC2(CCOC(C)(C)C2)C1C(=O)OCC (stereo not given)	-4
Cc1noc(C)c1NC(=O)Nc1ccc2c(c1)C(=O)N([C@H](C)CO)C[C@H](C)[C@@H](CN(C)Cc1ccc3c(c1)OCO3)OCCCC[C@H](C)O2	108
Cc1cccc(CCNC(=O)c2ccc(-c3nc(CN4CCN(c5ccccc5)CC4)c(C)o3)cc2)c1	-45
CCS(=O)(=O)N1CCCn2c(nnc2Cn2cccn2)C1	60
Cc1cnc(C(=O)N2Cc3cnn(Cc4ccc(F)cc4)c3C2)cn1	-2
CC(C)CNC(=O)C1CC(=O)N(CCc2c[nH]c3ccc(Cl)cc23)C1 (stereo not given)	44
Cc1ccc(CC(=O)Nc2ccc(-c3nc(Cn4nc(C)cc4C)c(C)o3)cc2)cc1	7
CCc1ccc(C2CC(=O)Nc3cc(O)c(C)cc32)o1 (stereo not given)	20
COCCN1C(=O)CCc2cc(NC(=O)c3cc(F)ccc3Cl)ccc21	-29
Cc1cccc(C(N)c2nccn2C)c1 (stereo not given)	0
Cc1nc(CC(=O)N2CCCCC2c2[nH]ncc2C)cs1 (stereo not given)	-34
Cc1c(CNC(=O)Nc2ccccc2)sc2ccccc12	-79*
C[C@@H]1CN([C@@H](C)CO)S(=O)(=O)c2ccc(C#Cc3cccc(F)c3)cc2O[C@@H]1CN(C)S(=O)(=O)c1cn(C)cn1	32

# More entries follow.
Molecule	Tg IFNy HTS
Clc1ccc(/C=C/CNCCCSc2ncccn2)cc1	-39
COCC1c2nnn(C)c2CCN1C(=O)Cc1cccc(F)c1 (stereo not given)	4
Cc1cc(C)c(C#N)c(Sc2ccc(Cl)cc2)n1	-73*
COc1ccccc1NC(=O)C[C@H]1CC[C@H]2[C@@H](COc3ccc(NS(C)(=O)=O)cc3C(=O)N2C)O1	4
COCCN(Cc1cccs1)S(=O)(=O)c1ccc2[nH]c(=O)ccc2c1	43
CN(C)C(=O)CN1CCN(Cc2cccc(C(=O)Nc3cnn(C)c3)c2)CC1	11
COCCNC(=O)Cn1nc(C(F)(F)F)c(Br)c1C	-64
CCOc1ccc(NC(=O)C(=O)NCCc2sc(-c3ccccc3)nc2C)cc1	95
CCC1COC2(CCN(C(=O)C3CCCO3)C2)C1 (stereo not given)	65
CCCCc1nc2ccccc2c(=O)n1NC(=O)c1c(O)c2ccccc2n(CCC)c1=O	-114*
CCS(=O)CCC(=O)Nc1ccc(NC(=O)c2ccc(C)o2)cc1 (stereo not given)	15
Cc1oc(-c2ccc(Cl)cc2)cc1C(=O)NCc1ccccc1	-8
c1csc(CN2C[C@H]3OCCN(CCN4CCCC4)[C@H]3C2)c1	133
O=C(c1cccs1)N1CCc2ccccc2C1	10
O=C1CCCN1Cc1nnc2n1CCN(Cc1ccoc1)C2	2
CO[C@@H]1CCN(c2nnc(C)s2)C[C@@H]1Cc1ccccc1	64
Cc1cccc(C2=NC3(CCN(C(=O)c4ccc(C(C)(C)C)cc4)CC3)NC2=O)c1	-55
CC(C)Nc1ncnc2c1CCN(c1cc(C(F)(F)F)ncn1)CC2	-41
COCC1CCCN(C(=O)c2ccc(-c3cnn(C)c3)nc2)C1 (stereo not given)	-51
COCC1c2nnn(C)c2CCN1C(=O)Cc1ccc(F)cc1C (stereo not given)	-6
Cc1nc(-c2ccc(F)cc2)sc1CCNC(=O)COc1ccccc1	-10
CN1CC2(CCCN(C(=O)CCc3nc4ccccc4[nH]c3=O)CC2)OC1=O (stereo not given)	-3
CCN(CC)CCCCN1c2ccccc2Oc2ccc(Cl)cc21	-30
CN(Cc1nc2ccccc2n1C)C(=O)c1ncn[nH]1	10
Cc1nc(S(=O)(=O)Nc2ccc(S(=O)(=O)N3CCOCC3)cc2)cn1C	-44
CC(=O)N1[C@H](CO)[C@@H](c2ccccc2)[C@H]1CN(CC1CCC1)C(=O)CN(C)C	-29
O=C(Nc1ccc(-c2nc(-c3ccccc3)co2)cc1)Nc1ccccc1Cl	38
COc1ccc(NC(=O)N2C[C@@H]3[C@H](c4ccccc42)[C@@H](CO)N3Cc2ccccn2)cc1	11
O=c1c2c(nc3cc(-c4ccccc4)[nH]n13)CSC2	89
CN1CC[C@]2(CN(Cc3nccn3C)C[C@H]2c2ccccc2)C1=O	-27

# Following part
Molecule	Tg IFNy HTS
COc1ccc(-c2nc(Cn3nnc(C(=O)Nc4cccc(C(F)(F)F)c4)c3C)c(C)o2)c(OC)c1	55
CCC(=O)N[C@@H]1CC[C@@H](CC(=O)NCc2ccccc2F)O[C@@H]1CO	-12
CCCS(=O)(=O)N1CCN(C(=O)c2ccccc2)CC1	3
CCSc1nc(CC(=O)N[C@@H]2C[C@H]2c2ccccc2)cs1	14
COC(=O)[C@@H]1C[C@@H](NC(=O)c2cccc(C#CC(C)(C)O)c2)CN1C	-43
CC(C)Cc1nc(-c2cccc(N3CCNC3=O)c2)n(-c2ccccn2)n1	4
Cc1cc(NC(=O)C2C(=O)c3ccccc3S(=O)(=O)N2C)no1 (stereo not given)	17&11
Cc1cc(C(F)(F)F)nc(SCC(=O)NCC(C)n2nc(C)c(C)c2C)n1 (stereo not given)	6
Clc1ccc2nc(C3CCN(CC4COc5ccccc5O4)CC3)[nH]c2c1 (stereo not given)	-3
O=C(CN1CCC2(CCC1=O)NC(=O)c1ccccc1N2)Nc1ccc2ncccc2c1 (stereo not given)	11
Cc1nc(-c2ccccc2)c(C(=O)N2CCN3C(=O)CNC(=O)C3C2)s1 (stereo not given)	-8
C=CCOc1nc(-c2cccs2)cc(-c2ccco2)c1C#N	22
NC(=O)c1cnc2n1CCN(C(=O)c1cccc(Cn3cccn3)c1)C2	-29
COc1ccc(S(=O)(=O)N2CCN(CC(O)c3ccc4c(c3)OCCCO4)CC2)cc1 (stereo not given)	51
COc1ccc(OC)c(-c2cc(Cl)c3c(c2)CC(CNC(=O)CCn2cncn2)O3)c1 (stereo not given)	6
O=C(NCCN1CCCCC1)c1cc(N2CCCN3CCC[C@H]3C2)ccn1	-12
Cc1noc(C)c1NC(=O)N(C)C[C@@H]1OCc2cnnn2CCCC(=O)N([C@H](C)CO)C[C@@H]1C	-5
CCOc1ccc(NC(=O)CN2C(=O)C3C4CCC(C4)C3C2=O)cc1 (stereo not given)	4
Cc1nc(N2CCCC2)nc2c1CCN(C(=O)Nc1ccccc1F)CC2	-3
CC(C)Cc1cn(C2CCN(C(=O)C3CCOC(C)(C)C3)CC2)nn1 (stereo not given)	2
COc1ncccc1-n1ccnc1-c1ccccc1OC(C)C(=O)O (stereo not given)	45
COC(=O)c1ccc(-c2nc3nnc(C)n3[nH]2)cc1	57
O=C(NCCc1ccccn1)Nc1nnc(-c2ccc(F)cc2)s1	-5
COc1ccc(S(=O)(=O)Nc2cncc(C(=O)NCc3cccnc3)c2)cc1	23
Cc1nc(CN2CC3CC(C(=O)CCN(C)C)C(C2)O3)cs1 (stereo not given)	53
CCCCN(C)Cc1ccc(C(=O)Nc2c(C)noc2C)cc1	-4
O=C(CN1C(=O)CCc2cc(S(=O)(=O)N3CCCC3)ccc21)N1CCN(c2ncccn2)CC1	7
COC(=O)c1cc(Br)c(=O)n(CCc2ccc(O)cc2)c1	-11
CN(C)c1ccc(NC(=O)c2c(O)c3ccccc3n(-c3ccccc3)c2=O)cc1	121
Cc1ccc(NC(=O)CC(=O)N(C)CCc2noc(C(C)C)n2)cc1	7

# (listing goes on)
Molecule	Tg IFNy HTS
COc1cccc(COC2CN(CCc3ccccc3)C(=O)CN(C(=O)c3cncs3)C2)c1 (stereo not given)	-18
Cc1nonc1CN(C)C(=O)c1cc(C(C)C)on1	-10
c1ccc(CSc2nccc(-c3ccc4c(c3)CCO4)n2)cc1	-81*
CC(=O)Nc1nc(C(=O)N2CCC(c3cc4ncccc4cn3)CC2)cs1	-29
CC=Cc1ccc2n(c1=O)C[C@H]1[C@H](CO)[C@@H](C(=O)N3CCOCC3)N(Cc3ccccc3)[C@@H]21 (mixture of isomers)	3
Cc1ncc2c(c1CNC(=O)c1cncs1)CCN(C(=O)c1ccc3c(c1)c1ccccc1n3C)C2	-36
CC(=O)Nc1ccc(C(=O)N(Cc2ccc(F)cc2)C2(C(=O)NCc3ccccc3)CCN(C(C)=O)CC2)cc1	42
Cc1ccsc1C(=O)N1CCCn2nnc(COCC3CC3)c2C1	4
COc1ncc(C2(O)CCN(Cc3ccc(COC(C)=O)o3)CC2)c(OC)n1	32
CN(C)Cc1ccccc1Cn1cncc1-c1cnn(C2CCCCC2)c1	3
COCCN1CC2(CCN(C(=O)NCc3ccccc3)CC2)C2(CCNC2=O)C1 (stereo not given)	-37
Cc1nn(C(C)CC(=O)NC(c2ccncc2)c2cccs2)c(C)c1Cl (stereo not given)	-27
COc1cc(N2CCOC3(COCCN(CCN(C)C)C3)C2)ncn1 (stereo not given)	3
Nc1cnn(Cc2ccc(Cl)c(Cl)c2)c1	246
CCOC(=O)Nc1nnc(CCc2ccccc2)s1	0
Cc1ccc(CC(=O)N2CCC3(CC2)NC(=O)c2ccc(F)cc2N3C)cc1	5
C[C@H](CO)N1C[C@H](C)[C@H](CN(C)Cc2ccncc2)Oc2ncc(C#CCC3CCCCC3)cc2C1=O	25
Cn1cc2c(n1)C(COCC1CC1)CN(Cc1ccc(F)cc1)C2 (stereo not given)	2
CCCNC(=O)N(C)C[C@H]1Oc2cc(C#C[C@@H](C)O)ccc2S(=O)(=O)N([C@H](C)CO)C[C@@H]1C	12
O=C(NCc1cccc(CN2CCCCCC2)c1)c1ccc(Cn2cncn2)cc1	-5
N[C@@H]1c2ccccc2C2(CCN(C(=O)Cc3c[nH]c4ccccc34)CC2)[C@H]1O	2
CN(Cc1cccc2cnccc12)c1ccc(-c2nccn2C)nn1	2
Nc1ccc(-c2ccc(F)c(CO)c2)cn1	9
CN(C)c1nc2c(c(N(C)C)n1)CCN(C(=O)CNS(C)(=O)=O)C2	70
CC(C)C(=O)Nc1ccc2cnn(CC3(O)CCN(C(=O)c4ccncc4)CC3)c2c1	10
CC(C)(C)c1csc(CCNC(=O)C2CC(=O)N(Cc3cccc(F)c3)C2)n1 (stereo not given)	13
COc1cccc(CN2CCC(O)(c3ccccc3C)C2)c1O (stereo not given)	22
O=C(Cn1c(=O)ccc2cc(S(=O)(=O)N3CCCC3)ccc21)NC1CCCc2ccccc21 (stereo not given)	47
Cn1nc(-c2cccnc2)c2c1CN(S(C)(=O)=O)CCC2	0
CN1CCN2CCN(C(=O)c3n[nH]c(=O)c4ccccc34)CC2C1=O (stereo not given)	6

# Remaining list, next part
Molecule	Tg IFNy HTS
CN1C(=O)c2cc(NS(=O)(=O)c3ccccc3F)ccc2OC[C@@H]2O[C@H](CC(=O)NC3Cc4ccccc4C3)CC[C@@H]21	-50
Nc1ccccc1SCC(O)Cn1ccc2ccccc21 (stereo not given)	-45
CN1C2CCN(Cc3ccsc3)CC2C[C@H]1Cn1cncn1 (stereo not given in full)	3
CCc1c(C)sc2nc(C(C)C)n3c(=O)n(CC(=O)NC(C)C)nc3c12	38
Cc1cc(C)c(OCC(=O)NC2=NCCS2)c(Cl)c1	2

# Molecules shown so far that have two or more sulfur atoms, in the order listed:
Molecule	Tg IFNy HTS
C[C@@H]1CN([C@@H](C)CO)S(=O)(=O)c2ccc(C#Cc3cccc(F)c3)cc2O[C@@H]1CN(C)S(=O)(=O)c1cn(C)cn1	32
COCCN(Cc1cccs1)S(=O)(=O)c1ccc2[nH]c(=O)ccc2c1	43
Cc1nc(S(=O)(=O)Nc2ccc(S(=O)(=O)N3CCOCC3)cc2)cn1C	-44
CCSc1nc(CC(=O)N[C@@H]2C[C@H]2c2ccccc2)cs1	14

# Some of the entries so far, field by field:
canonical_smiles: C=CCOc1nc(-c2cccs2)cc(-c2ccco2)c1C#N
  Tg IFNy HTS = 22

canonical_smiles: NC(=O)c1cnc2n1CCN(C(=O)c1cccc(Cn3cccn3)c1)C2
  Tg IFNy HTS = -29

canonical_smiles: COc1ccc(S(=O)(=O)N2CCN(CC(O)c3ccc4c(c3)OCCCO4)CC2)cc1 (stereo not given)
  Tg IFNy HTS = 51

canonical_smiles: COc1ccc(OC)c(-c2cc(Cl)c3c(c2)CC(CNC(=O)CCn2cncn2)O3)c1 (stereo not given)
  Tg IFNy HTS = 6

# Only part of the results is shown. The share of hits here may be higher or lower than overall.
